# From PubChem
# TRPML1 inh = inhibitors of human TRPML1 channel; Q9GZU1; TRPML1-inducible cells, Ca2+ dye fluorescence, FDSS; hits give low values; inhibition of EC80 agonist-evoked calcium signal; activity change, negative = inhibition, % (no concentration beside the values); actives 0.02% (n = 390,000); in the data active means activity change below about -50%; inconclusive means about -30% to -50%; inactive means above about -30%;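 also: stimulus is agonist 54-4 at its EC80 concentration; % is scaled to controls: 0 for no effect and ±100 for the full control effect; compound concentration not given in the record; the text of the record puts the active cut at -80%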
# Target sequence (Q9GZU1 whole entry, looked up): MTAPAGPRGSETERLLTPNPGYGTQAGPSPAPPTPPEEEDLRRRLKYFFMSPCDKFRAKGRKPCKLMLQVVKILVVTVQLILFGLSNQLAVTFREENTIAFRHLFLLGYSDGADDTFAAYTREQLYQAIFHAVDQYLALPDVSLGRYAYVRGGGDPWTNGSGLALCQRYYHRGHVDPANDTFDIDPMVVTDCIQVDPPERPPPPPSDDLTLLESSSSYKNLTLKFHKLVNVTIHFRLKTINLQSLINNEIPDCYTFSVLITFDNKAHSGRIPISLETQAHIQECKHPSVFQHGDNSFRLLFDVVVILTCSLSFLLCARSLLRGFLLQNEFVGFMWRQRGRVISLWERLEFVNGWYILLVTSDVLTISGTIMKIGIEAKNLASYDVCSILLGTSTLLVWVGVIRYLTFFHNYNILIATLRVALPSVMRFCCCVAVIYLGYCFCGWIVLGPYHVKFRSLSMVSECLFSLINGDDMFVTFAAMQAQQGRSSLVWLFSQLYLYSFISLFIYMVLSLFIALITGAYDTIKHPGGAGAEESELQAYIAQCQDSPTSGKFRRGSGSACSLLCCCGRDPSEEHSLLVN
#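 TRPML1-DL cells, Tet-induced overnight (~16 h, 37 °C) at 1,500 cells/well, were loaded with Ca8 no-wash dye plus quencher for 45-90 min at room temperature. Compounds were pinned during FDSS kinetic reading; agonist 54-4 at EC80 (4 uM final) then added.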
# TRPML1 agonist = agonists of human TRPML1 channel | actives 0.12% (n = 410,000) | Q9GZU1 | activation, % (no concentration beside the values) | TRPML1-expressing cells, Ca2+ dye fluorescence, FDSS; host cell line not named in the record; reference of the full effect not given here; in the data active = activation above about 50%; inconclusive = about 30% to 50%; inactive = below about 30%; also: 0% is about no effect; the text of the record puts the active cut at 80%
#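 Kinetic FDSS Ca2+ read in Tet-induced TRPML1-DL cells (ABD Ca8 dye plus quencher, 45-90 min RT loading): baseline, then compound, then 110 s agonist window; EC80 agonist 54-4 at 4uM final added afterwards for a 110 s antagonist window.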
# Six1-Eya2 blk = blocks human Six1 binding to Eya2; Q15475+O00167; AlphaScreen GST-Six1/His-Eya2 binding, biochemical; hits give low values; control for the full effect not named in the record; activity change, % (concentration not given with the values); actives 0.56% (n = 360,000); AID 651725; in the data active = activity change below about -65%; inconclusive = about -30% to -65%; inactive = above about -30%; also: % is scaled to controls: 0 for no effect and ±100 for the full control effect
#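 GST-Six1 + His-Eya2 (5X stock: 250/500 nM); Tris pH 8.0, 300 mM NaCl, 0.05% BSA, 0.02% Tween 20; GSH donor/Ni acceptor beads; 1 h 37 °C dark; AlphaScreen readout.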
# TRPV1 PAM = potentiators of human vanilloid receptor 1 (TRPV1); actives 0.02% (n = 320,000); Q8NER1; TRPV1-expressing cells, Fluo-8 calcium influx, capsaicin EC20 potentiation; host cell line not named in the record; control for the full effect not named in the record; potentiation, % at 8.33 µM; active means potentiation above 80%; inconclusive means 30% to 80%; inactive means below 30%; also: 0% is about no effect
#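 Cells expressing TRPV1 were dye-loaded with Fluo-8 and read kinetically: 10 s baseline, 3 min after compound (agonist portion), then 2 min after EC20 capsaicin (allosteric enhancer portion). Calcium-bound dye fluorescence at 480/520 nm.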
# CtBP-E1A inh = blocks the CtBP interaction with E1A | actives 0.49% (n = 340,000) | activity change, % (concentration not given with the values) | AlphaScreen GST-E1A/His-CtBP binding, 1536-well; hits give low values; control for the full effect not named in the record; in the data active means activity change below about -65%; inconclusive means about -30% to -65%; inactive means above about -30%; also: % is scaled to controls: 0 for no effect and ±100 for the full control effect
#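 Protein mix (5X: 125 nM each GST-E1A, His-CtBP) was incubated with pinned compound 2 h at 37 deg C in dark, in 50 mM Tris pH 8.0 buffer with 300 mM NaCl. Glutathione donor and nickel acceptor beads followed; AlphaScreen signal read after 1 h.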
# D2 potentiator = positive allosteric modulators of human D2 dopamine receptor. actives 0.23% (n = 360,000). P14416. potentiation, % (no concentration beside the values). DiscoveRx D2 beta-arrestin cells, luminescence, 90 min; 100% = 57 uM dopamine signal; active = potentiation of 50% or more; inconclusive = 30% to 50%; inactive = 30% or less;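 also: compound concentration not given in the record; tested on top of an EC20 dose of dopamine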
# Target sequence (P14416 whole entry, looked up): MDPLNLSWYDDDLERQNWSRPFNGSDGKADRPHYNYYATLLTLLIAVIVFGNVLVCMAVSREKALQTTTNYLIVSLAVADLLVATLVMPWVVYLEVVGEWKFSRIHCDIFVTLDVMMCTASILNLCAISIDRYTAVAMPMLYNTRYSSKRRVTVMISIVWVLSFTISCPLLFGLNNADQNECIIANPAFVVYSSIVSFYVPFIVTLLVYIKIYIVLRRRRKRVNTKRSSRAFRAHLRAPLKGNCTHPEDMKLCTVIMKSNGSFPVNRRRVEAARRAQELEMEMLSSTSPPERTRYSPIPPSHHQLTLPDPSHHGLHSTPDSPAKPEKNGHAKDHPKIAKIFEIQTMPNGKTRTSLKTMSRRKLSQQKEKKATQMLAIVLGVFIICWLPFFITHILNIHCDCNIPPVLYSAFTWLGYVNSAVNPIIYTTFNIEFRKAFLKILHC
#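 PathHunter D2 cells, attached overnight at 37 deg C, received compound in DMSO plus dopamine at EC20 (50 nM final) for 90 min at 37 deg C. Beta-arrestin recruitment was read as luminescence after 1 h with detection reagent at ambient temperature.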
# * hit, by the source's call; ? = inconclusive; nt = not tested or not shown. No enrichment for hits (roughly 0.95% active in at least one column).
SMILES,TRPML1 inh,TRPML1 agonist,Six1-Eya2 blk,TRPV1 PAM,CtBP-E1A inh,D2 potentiator
COc1ccc(CNC(=O)/C=C/c2ccc(S(=O)(=O)NCc3ccco3)cc2)cc1OC,-5,-0.4,-11,-7,-2,-1
O=c1c2c(-c3ccc(Cl)cc3)csc2nc2n1CCC2,31,0.4,-1,-7,-10,-16
Cc1[nH]c(C(=O)N/N=C/c2ccc(C(=O)O)cc2)c(C)c1C(=O)N/N=C/c1ccc(C(=O)O)cc1,-2,-0.4,-4,-4,-9,-22
O=C1c2ccccc2C(=O)N1c1ccc(S(=O)(=O)N2CCCCC2)cc1,18,0.1,5,-10,-6,-2
CCOC(=O)C1(Cc2ccccc2)CCCN(S(=O)(=O)N(C)C)C1 (stereo unspecified),-9,1.1,1,?,11,-1
O=C1CC(c2cccc(O)c2)Oc2ccccc21 (stereo unspecified),14,3.1,4,-11,-11,-15
CCOC(=O)CN1C(=N)N(c2nc(NC(C)C)nc(OC)n2)CC1=O,-1,-0.5,-2,6,nt,-16
Nc1ccc(-c2nc3ccccc3[nH]2)cc1,-4,-0.2,-2,13,-2,-1
Cn1cc(C(=O)c2ccc(Cl)cc2Cl)cc1C(=O)N/N=C(\N)COc1ccc(Cl)cc1,-16,2.3,-4,25,-11,-1
CN1CCN(C(=O)CCN2C(=O)/C(=C\c3ccccc3F)SC2=S)CC1,-8,-0.7,-5,-5,-10,-4
COc1ccc(Cl)cc1C(=O)Nc1nc(C)cc(C)n1,3,-0.4,-1,4,nt,0
CC(C(=O)NC1CCCCCC1)c1ccc([N+](=O)[O-])cc1 (stereo unspecified),-22,0.7,7,-12,-2,0
CC(C)c1ccc(S(=O)(=O)N2CCN(C(=S)NCc3ccco3)CC2)cc1,12,2.8,-11,10,-10,-15
Cc1nn(-c2cc(C)c3ccccc3n2)c2c1C1C(C2)C1(C)C (stereo unspecified),-17,1.4,-3,1,16,-13
Cc1noc(/C=C/c2ccco2)c1S(=O)(=O)N1CCC(C(=O)N2c3ccccc3CC2C)CC1 (stereo unspecified),4,0.4,-16,-2,-28,16
CC(C)CCn1c(CN2CCN(C(=O)c3ccco3)CC2)nc2c1c(=O)n(C)c(=O)n2C,8,-0.8,-24,3,-15,-4
CCC1=[N+](C)c2cccc3cccc(c23)N1C,-9,0.1,-1,8,1,-10
COc1ccccc1/C=C(/CC(=O)NCc1ccc2c(c1)OCO2)c1nc2ccccc2s1,8,-0.1,-1,-8,0,-8
C[C@H]1CN([C@@H](C)CO)C(=O)CCCn2cc(nn2)CO[C@@H]1CN(C)C(=O)Nc1ccc(-c2cccs2)cc1,5,0.9,10,nt,-22,-7
c1ccc2sc(NC3=NCN(CCN4CCOCC4)CN3)nc2c1,4,0.2,-2,9,0,-14
O=C(N/N=C/c1ccc(OC(=O)c2ccco2)cc1)c1ccccn1,-19,0.9,-1,4,-1,-5
CCc1nnc(/N=C/c2c(O)n(-c3ccc(Cl)cn3)c(=O)c3ccccc23)s1,-7,0.1,13,-3,-18,-1
COc1ccc(-c2[nH]nc3oc(=O)c(CCO)c(C)c23)cc1,0,0.1,6,0,-12,-5
O=C(CN1CCCC1c1cccs1)N1CCN(S(=O)(=O)c2ccccc2)CC1 (stereo unspecified),11,1.1,3,18,3,-3
O=C(Cc1ccccc1)Nc1nc(-c2cccs2)cs1,-19,0.5,-1,-7,-3,-3
O=C(Nc1ccc(S(=O)(=O)Nc2nccs2)cc1)c1ccc(N2C(=O)c3ccccc3C2=O)cc1,-17,0.7,-3,1,nt,-7
CC(C)N1CC(C(=O)Nc2ccc(S(=O)(=O)N3CCCCC3)cc2)CC1=O (stereo unspecified),-7,0.1,0,-2,0,-5
O=C(O)/C=C/c1cn(-c2ccccc2)nc1-c1ccccc1,-12,-0.2,-1,0,0,-13
O=C(/C=C/c1ccco1)Nc1ccccc1C(=O)Nc1cccc(C(=O)O)c1,-17,0.0,-14,4,-12,0
COc1ccccc1N1CCN(c2nc(C)nc3c2oc2ccccc23)CC1,-2,-0.2,-24,0,?,1
O=C(NCc1ccc2c(c1)OCO2)c1nn(-c2ccccc2)c(=O)c2ccccc12,-6,-0.9,-3,-11,2,4
Cn1c(C(=O)NC2CCCCC2)cc2sccc21,1,0.4,-5,-8,-7,-15
C#CCn1c(=NC(=O)c2sc3ccccc3c2Cl)sc2cc(S(N)(=O)=O)ccc21,-21,0.2,-3,-1,26,-14
Cc1ccc(NC(=O)c2cc(=O)[nH]c3ccccc23)cc1C,14,-1.6,-17,1,6,-5
CC(C)n1cnnc1SCC(=O)NNC(=O)COc1ccc(Cl)cc1,31,-0.9,2,-15,1,-10
Cc1ccc(OCCC(=O)OCC(=O)Nc2ccc(C)cc2Cl)cc1,4,0.1,-1,6,12,-22
O=C(O)CCCn1cc(NC(=O)c2ccc(F)cc2)cn1,0,-0.4,9,-20,nt,-1
O=C(Nc1c(F)cccc1F)C1CCN(C(=O)c2cccs2)CC1,-15,0.0,-4,2,0,-2
COc1cc2c(cc1OC)-c1nnc(-c3cccs3)n1C(C)(C)C2,23,-1.0,5,nt,-2,-4
CCOC(=O)[C@]12CCCC=C1N(Cc1ccc3c(c1)OCO3)C(=O)[C@H](CC(=O)N1CCC(c3ccccc3)CC1)C2,nt,-0.1,-18,nt,-12,nt
Cc1cc(NS(=O)(=O)c2ccc(NC(=O)Cc3ccc([N+](=O)[O-])cc3)cc2)no1,4,-0.2,1,23,-9,-2
COc1ccc(CNC(=O)CN2C(=O)NC3(CCCc4sccc43)C2=O)cc1 (stereo unspecified),2,0.9,0,-2,4,9
CCOC(=O)NNC1CC(=O)N(c2ccccc2)C1=O (stereo unspecified),9,0.0,7,15,-4,-8
COc1cc(OC)c(C(=O)OCN2C(=O)c3ccccc3C2=O)cc1OC,?,0.6,9,1,4,3
COc1cc(/C=N/n2c(-c3ccccc3)n[nH]c2=S)cc(OC)c1OC,8,1.8,-6,19,-3,-13

# Arranged by the number under CtBP-E1A inh (descending): five of the compounds above.
compound | TRPML1 inh | Six1-Eya2 blk | CtBP-E1A inh | D2 potentiator
CC(C)n1cnnc1SCC(=O)NNC(=O)COc1ccc(Cl)cc1 | 31 | 2 | 1 | -10
O=C(Nc1c(F)cccc1F)C1CCN(C(=O)c2cccs2)CC1 | -15 | -4 | 0 | -2
COc1cc2c(cc1OC)-c1nnc(-c3cccs3)n1C(C)(C)C2 | 23 | 5 | -2 | -4
COc1cc(/C=N/n2c(-c3ccccc3)n[nH]c2=S)cc(OC)c1OC | 8 | -6 | -3 | -13
Cc1cc(NS(=O)(=O)c2ccc(NC(=O)Cc3ccc([N+](=O)[O-])cc3)cc2)no1 | 4 | 1 | -9 | -2

# Carrying on:
SMILES,TRPML1 inh,TRPML1 agonist,Six1-Eya2 blk,TRPV1 PAM,CtBP-E1A inh,D2 potentiator
Cn1nnc(NC(=S)NC(=O)c2ccc3ccccc3c2)n1,-8,-0.3,-3,nt,6,-46
COC(=O)C1=C(C)NC(C)=C(C(=O)OC)C1C(=O)OCC(=O)N1CCCCC1C (stereo unspecified),-12,0.0,8,4,-24,-15
COc1ccc(C(C)C)cc1-c1cccc2nncn12,nt,-0.9,7,nt,0,7
COc1ccccc1C(=O)NNC(=O)CN(C)S(=O)(=O)c1ccc(Cl)cc1,-5,-1.1,1,nt,4,-7
CC1=NN(C(N)=S)C(=O)C1N=Nc1ccccc1[N+](=O)[O-] (stereo unspecified),32,-0.3,-1,nt,-10,-12
C=CCOc1ccc(CN(C)C(=O)CN2C(=O)c3ccccc3C2=O)cc1,?,0.8,6,-1,4,-6
O=C(O)c1ccc(-c2sc(Nc3ccccc3)n[n+]2-c2ccc(F)cc2)cc1,-20,-0.1,4,-5,3,-5
CN1CCN(NS(=O)(=O)c2cccs2)CC1,44,4.0,0,6,5,3
CCSc1nc(-c2ccc(OC)cc2)ccc1C#N,-10,-0.9,76,-1,55,2
NCCN1C(=O)S/C(=C\c2ccc3c(c2)OCO3)C1=O,-2,1.0,0,-11,nt,-8
NS(=O)(=O)c1ccc(Nc2nc(-c3cccc([N+](=O)[O-])c3)cs2)cc1,4,1.5,-17,-13,-7,-1
CC(NC(=O)C12CC3(C)CC(C)(CC(C)(C3)C1)C2)C(=O)O (stereo unspecified),-10,-0.1,6,4,nt,-3
O=C(CN1CCN(c2cccc(C(F)(F)F)c2)CC1)NCc1ccccc1,-3,1.4,13,-24,-16,-13
O=C(O)CSc1nnc(CNc2ccc(F)cc2)n1-c1ccccc1,-9,-0.7,1,11,5,10
COc1ccc(CC(=O)N[C@@H](CCSC)c2nc3ccccc3[nH]2)cc1,-7,-0.9,-9,-8,-2,0
COc1ccc(/C=C/C(=O)NC(CCSC)C(=O)O)cc1 (stereo unspecified),20,-0.2,-5,0,-9,6
CC1CCc2cc(F)ccc2N1S(=O)(=O)c1ccc(Cl)nc1 (stereo unspecified),36,0.6,17,13,7,2
CCOC(=O)C1(Cc2cccc(F)c2)CCN(Cc2c(C)nn(CC)c2C)CC1,nt,nt,-7,8,-2,-22
CCC1(O)CC(C(=O)OC)=NN1C(=O)c1ccccc1 (stereo unspecified),5,0.1,5,15,16,-4
CS(=O)(=O)c1ccc2nc(NC(=O)c3ccc(N4CCCC4=O)cc3)sc2c1,14,0.6,-6,6,0,-1
COC(=O)Nc1c(C)n(C)n(-c2ccccc2)c1=O,2,-0.4,2,13,4,0
CN(c1ccc(OCC(=O)Nc2ccc3[nH]c(=O)[nH]c3c2)cc1)S(=O)(=O)c1ccc(Cl)cc1,17,0.0,-5,15,-6,-5
COc1cc(/C=C(\C#N)C(=O)Nc2ccccn2)ccc1O,1,2.4,-14,4,-10,-18
COc1ccccc1-n1nc(C(=O)NCc2ccco2)c2ccccc2c1=O,-6,0.8,-1,?,-1,12
CC(=O)O[C@]1(C(C)=O)CC[C@H]2[C@@H]3C=CC4=CC(=O)C=C[C@]4(C)[C@H]3CC[C@@]21C,11,-1.2,6,4,-21,-5
Cc1ccnc(NC(=O)c2ccccc2NC(=O)C(C)(C)C)c1,-4,-0.3,0,-17,8,11
O=C(N1CCCC1)C12CCC3CC(CC(C3)C1)C2,-5,-0.3,9,-14,-3,2
COc1ccc(CCNC2CCC(c3ccccc3)CC2)cc1 (stereo unspecified),-15,2.8,1,?,0,-6
Cc1cccc(N2N=C(C(=O)OCC(=O)c3ccccc3)CCC2=O)c1,17,1.1,-7,nt,-1,-8
CC1(NC(=O)c2ccccc2)CCN(CCc2cccs2)C1=O (stereo unspecified),5,-0.1,-5,1,1,-8
Cc1ccc2nc(N(CCN(C)C)C(=O)c3cc(Cl)sc3Cl)sc2c1,2,4.6,-21,23,1,-45
O=C(Nc1ccccc1)Nc1ccc2nnsc2c1,36,0.0,-12,0,5,-21

# Structures listed so far containing an aryl thioether with sulfur outside any ring:
SMILES,TRPML1 inh,TRPML1 agonist,Six1-Eya2 blk,TRPV1 PAM,CtBP-E1A inh,D2 potentiator
CC(C)n1cnnc1SCC(=O)NNC(=O)COc1ccc(Cl)cc1,31,-0.9,2,-15,1,-10
CCSc1nc(-c2ccc(OC)cc2)ccc1C#N,-10,-0.9,76,-1,55,2
O=C(O)CSc1nnc(CNc2ccc(F)cc2)n1-c1ccccc1,-9,-0.7,1,11,5,10
